MITF inhib – MITF inhibition | inhibition, % (no concentration beside the values) | AID 2240 | hit rate 0.28% among 37,000 | TRPM1 promoter luciferase, luminescence, 24 h;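 active = most replicates at 85% or more, or half of them and the mean; inconclusive = half reach 85% but not the mean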;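 also: human melanocyte line stably carrying TRPM1 promoter luciferase reporter; 0% = vehicle wells and 100% = a positive control; the first replicate is given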
PD-1 reverse act – reversal of PD-1 mediated T-cell inhibition; primary human CD4 T cells, PD-L1 beads, CellTiter-Glo 96 h; activation, % (test concentration not listed); 29,000 tested, under 10 active; AID 2316;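 active = replicate mean of 50% or more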;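 also: 0% = median vehicle wells and 100% = positive control; 100 nL library stock added to about 50 µL; numbers are from one replicate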
Shh pathway inh – Sonic Hedgehog pathway inhibition. Shh-LIGHT2 Gli-luciferase reporter, 30 h. inhibition, % (no concentration beside the values). hit rate 2.1% among 22,000. AID 2313;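 active = replicate mean of 65% or more; inconclusive = mean lower but half the replicates past it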;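 also: pathway switched on by Shh-conditioned medium diluted 1 in 25 in low serum; 100 nL library stock added to about 40 µL; 0% = median of neutral wells and 100% = positive control level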
YB-1 expr inh – YB-1 expression inhibition; U2OS, qRT-PCR YB-1 vs CDIP delta delta Cp, 16 h; active compounds read high; zero = DMSO, each unit about twofold; delta delta Cp (YB-1 minus CDIP) (test concentration not listed); hit rate 0.37% among 30,000;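 active = delta delta Cp rounded down to an integer at or above 3, about 3 SD of DMSO wells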;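 also: higher means less YB-1 transcript or more CDIP transcript relative to DMSO; stock transfer was 100 nL into about 100 µL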
Starred values were filed as active, the others as inactive; ? = inconclusive; nt = not tested or not shown.

Order of results – MITF inhib, PD-1 reverse act, Shh pathway inh, YB-1 expr inh
1	OC(CN1CCN(c2cccc(Cl)c2)CC1)C(c1ccccc1)c1ccccc1 (stereo not given)
    9, nt, 95*, 0.00026
2	COC(=O)c1cccc(O)c1C(=O)c1c(O)cc(C)cc1O
    4, -1.2, 3, -0.083
3	COc1ccc(C)cc1S(=O)(=O)N(CC(=O)O)c1ccccc1
    -4, 1.6, nt, nt
4	C/C(CCc1oc2ccccc2c1-c1ccc(C)o1)=N\O
    0, -1.2, nt, 0.23
5	C[C@@H]1CN([C@H](C)CO)C(=O)Cc2cc(NS(=O)(=O)c3ccccc3)ccc2O[C@H]1CN(C)S(=O)(=O)c1ccc(Cl)cc1
    -4, 0.9, ?, -0.13
6	Cc1ccc(-c2nnc(SCC(=O)Nc3ccccc3F)n2C)cc1
    -39, 0.8, nt, nt
7	C[C@@H]1CN([C@H](C)CO)C(=O)Cc2cc(NC(=O)CCC(F)(F)F)ccc2O[C@@H]1CN(C)C(=O)NC1CCCCC1
    8, 2.0, -10, -0.043
8	Cc1noc(C)c1NC(=O)N(C)C[C@@H]1OCCCC[C@@H](C)Oc2ccc(NC(=O)NC3CCCCC3)cc2C(=O)N([C@H](C)CO)C[C@@H]1C
    -16, 0.6, -5, nt
9	C[C@H](CO)N1C[C@H](C)[C@@H](CN(C)S(=O)(=O)c2cccs2)Oc2ccc(NC(=O)Cn3cnnn3)cc2C1=O
    -6, 2.2, -6, -0.21
10	CCOC(=O)c1c(NC(=O)Cn2cc([N+](=O)[O-])cn2)sc2c1CCC2
    0, 0.2, nt, nt
11	CC(C)NC(=O)N(C)C[C@H]1Oc2c(cccc2N(C)C)C(=O)N([C@H](C)CO)C[C@@H]1C
    2, 1.5, -15, -0.3
12	C[C@H]1CN([C@@H](C)CO)C(=O)c2cc(NC(=O)C3CCCCC3)ccc2O[C@@H]1CN(C)S(=O)(=O)c1ccccc1
    -2, 0.1, 14, -0.24
13	Cc1ccc(S(=O)(=O)N(C)C[C@H]2OCCCC[C@@H](C)Oc3ccc(NC(=O)NC(C)C)cc3C(=O)N([C@H](C)CO)C[C@@H]2C)cc1
    0, nt, 11, -0.15
14	C[C@H]1CN([C@@H](C)CO)C(=O)Cc2cc(NC(=O)Nc3ccc(C(F)(F)F)cc3)ccc2O[C@H]1CN(C)C
    -10, nt, nt, -0.15
15	C[C@@H]1CCCCO[C@H](CN(C)S(=O)(=O)c2ccc(Cl)cc2)[C@@H](C)CN([C@H](C)CO)C(=O)c2cc(NC(=O)CCC(F)(F)F)ccc2O1
    12, nt, ?, 0.19
16	COc1cc(NC(=O)COc2ccc(Cl)cc2Cl)ccc1NC(=O)c1ccccc1Cl
    -7, 1.5, nt, nt
17	C[C@@H]1CN([C@H](C)CO)C(=O)c2cc(NS(=O)(=O)c3ccc(Cl)cc3)ccc2O[C@@H]1CN(C)C(=O)Nc1cccc2ccccc12
    13, 1.5, nt, -0.36
18	Cc1ccc(S(=O)(=O)N(C)C[C@H]2Oc3ccc(NS(=O)(=O)c4c(C)noc4C)cc3C(=O)N([C@H](C)CO)C[C@@H]2C)cc1
    -16, -1.2, nt, -0.26
19	NC1=NN(c2ccccc2)C(=O)C1
    5, -1.7, nt, -0.23
20	C[C@@H]1CN([C@H](C)CO)C(=O)Cc2cc(NC(=O)Nc3ccc4c(c3)OCO4)ccc2O[C@H]1CN(C)S(=O)(=O)c1ccc(Cl)cc1
    -8, nt, -16, -0.37
21	C[C@H](CO)N1C[C@H](C)[C@H](CN(C)C(=O)Nc2ccc3c(c2)OCO3)Oc2ccc(N(C)C)cc2C1=O
    -4, 0.6, 22, -0.11
22	C[C@@H]1CCCCO[C@@H](CN(C)CC2CC2)[C@@H](C)CN([C@H](C)CO)C(=O)c2cc(NC(=O)c3ccccc3)ccc2O1
    -4, nt, 16, -0.0081
23	C[C@@H]1CN([C@H](C)CO)C(=O)Cc2cc(NC(=O)Nc3ccccc3)ccc2O[C@H]1CN(C)S(=O)(=O)c1ccc(F)cc1
    -16, -0.6, -33, -0.38
24	C[C@H]1CN([C@@H](C)CO)C(=O)c2cc(NC(=O)CCN3CCOCC3)ccc2O[C@H]1CN(C)Cc1ccc(C(=O)O)cc1
    0, 1.6, nt, -0.17
25	C[C@@H]1CN([C@H](C)CO)C(=O)c2cccc(NC(=O)c3ccc(-c4nccs4)cc3)c2O[C@@H]1CN(C)S(=O)(=O)c1ccc(F)cc1
    4, 0.5, 32, -0.18
26	Cc1noc(C)c1S(=O)(=O)Nc1cccc2c1O[C@H](CN(C)C)[C@H](C)CN([C@H](C)CO)C2=O
    -11, 0.6, -23, -0.28
27	Cc1ccc(S(=O)(=O)N(C)C[C@H]2Oc3ccc(NC(=O)CCN4CCOCC4)cc3C(=O)N([C@@H](C)CO)C[C@@H]2C)cc1
    7, 1.0, -14, -0.28
28	C[C@@H]1CCCCO[C@H](CN(C)C(=O)Nc2ccccc2)[C@@H](C)CN([C@H](C)CO)C(=O)c2cc(NC(=O)CCC(F)(F)F)ccc2O1
    -7, 0.4, -47, -0.0046
29	O=C1c2ccccc2C(=O)N1C(CO)C(O)c1ccccc1 (stereo not given)
    11, 0.6, -21, 0.2
30	Cc1ccc(Cl)cc1NC(=O)CSc1nc2c(c(C(F)(F)F)c1C#N)CCCC2
    -8, -3.6, nt, nt
31	COc1ccc(CN(C)C[C@H]2Oc3c(NC(=O)c4ccc(-c5nccs5)cc4)cccc3C(=O)N([C@H](C)CO)C[C@H]2C)cc1
    -22, nt, 25, -0.19
32	C[C@H](CO)N1C[C@H](C)[C@H](CN(C)Cc2ccncc2)Oc2ccc(NS(=O)(=O)c3cccs3)cc2CC1=O
    -7, 1.3, 6, -11
33	CC(C)NC(=O)Nc1ccc2c(c1)C(=O)N([C@H](C)CO)C[C@H](C)[C@@H](CN(C)Cc1ccc(Cl)c(Cl)c1)OCCCC[C@@H](C)O2
    -1, nt, nt, -0.35
34	CC(C)Cc1cnc(CCC(N)=O)c(=O)[nH]1
    -6, 0.6, -30, -0.038
35	C[C@H](CO)N1C[C@H](C)[C@H](CN(C)CC2CC2)Oc2ccc(NC(=O)c3ccncc3)cc2C1=O
    -12, nt, -10, -0.39
36	C[C@H]1CN([C@@H](C)CO)C(=O)c2cccc(NC(=O)c3ccc(-c4nccs4)cc3)c2O[C@H]1CN(C)S(=O)(=O)c1ccccc1
    -22, nt, -25, 0.37
37	O=C(NCCc1c[nH]c2ccccc12)NC12CC3CC(CC(C3)C1)C2
    -64, -0.1, nt, nt
38	Cc1cc(C(=O)Nc2cccc3c2O[C@@H](CN(C)CC2CCCCC2)[C@H](C)CN([C@@H](C)CO)C3=O)n(C)n1
    13, 0.3, 42, -0.3
39	C[C@@H]1CCCCO[C@H](CN(C)Cc2ccc(C(=O)O)cc2)[C@@H](C)CN([C@H](C)CO)C(=O)c2cc(NC(=O)c3ccncc3)ccc2O1
    -6, 2.3, 55, 0.26
40	C[C@H](CO)N1C[C@H](C)[C@@H](CN(C)S(=O)(=O)c2cccs2)Oc2ccc(NC(=O)CCCN(C)C)cc2C1=O
    5, 0.5, -4, -0.74
41	C[C@H](CO)N1C[C@H](C)[C@H](CN(C)S(=O)(=O)c2ccccc2)Oc2ccc(NC(=O)CCN3CCOCC3)cc2CC1=O
    -2, 0.6, -9, 0.053
42	COc1ccc(OC)c(C(=O)c2coc3ccc(O)cc23)c1
    -5, 0.3, 20, 0.53
43	O=C(CSc1ncnc2scc(-c3ccc(Cl)cc3)c12)NCC1CCCO1 (stereo not given)
    -9, -1.1, nt, nt
44	C[C@H]1CN([C@@H](C)CO)C(=O)c2cccc(NC(=O)NC3CCCCC3)c2O[C@@H]1CN(C)CC1CC1
    -2, 0.0, -8, -0.49
45	Clc1ccc(N2CCN(Cc3c[nH]c4ncccc34)CC2)cc1
    -4, nt, -14, -0.019
46	COc1cccc(NC(=O)CSc2nnc(-c3ccccc3F)n2-c2ccccc2)c1
    14, -0.2, nt, nt
47	CNC[C@@H]1Oc2ccc(NS(=O)(=O)c3ccc(Cl)cc3)cc2CC(=O)N([C@@H](C)CO)C[C@@H]1C
    1, 0.8, -6, 0.12
48	C[C@@H]1CN([C@H](C)CO)C(=O)c2cc(NC(=O)CCCN(C)C)ccc2O[C@@H]1CN(C)S(=O)(=O)c1cn(C)cn1
    -1, 1.2, -1, 0.11
49	C[C@@H]1CN([C@H](C)CO)C(=O)c2cc(NS(=O)(=O)c3ccccc3)ccc2O[C@@H]1CN(C)S(=O)(=O)c1cccs1
    -2, nt, 10, 0.011
50	Cc1ccc(S(=O)(=O)NCCSc2nnnn2-c2cc(C)ccc2C)cc1
    29, 0.0, nt, nt

Next part.
Order of results – MITF inhib, PD-1 reverse act, Shh pathway inh, YB-1 expr inh
51	C[C@@H]1CN([C@H](C)CO)C(=O)c2cc(NC(=O)c3ccncc3)ccc2O[C@H]1CN(C)S(C)(=O)=O
    3, 0.6, nt, -0.12
52	C[C@@H]1CCCCO[C@@H](CN(C)C(=O)c2ccccc2)[C@@H](C)CN([C@H](C)CO)C(=O)c2cc(NC(=O)c3ccncc3)ccc2O1
    2, 2.3, -19, 0.26
53	Cn1c(=O)[nH]c(=O)c2c1ncn2CC(=O)NCc1ccccc1
    -5, 0.9, nt, nt
54	Cc1noc(C)c1NC(=O)N(C)C[C@H]1Oc2c(NS(=O)(=O)c3c(C)noc3C)cccc2C(=O)N([C@@H](C)CO)C[C@H]1C
    -12, nt, -27, 0.079
55	COC(=O)c1ccccc1NC(=O)CSc1nnnn1-c1cccc2ccccc12
    16, 0.5, nt, nt
56	CC(C)NC(=O)Nc1ccc2c(c1)C(=O)N([C@H](C)CO)C[C@H](C)[C@@H](CN(C)C(=O)CCCN(C)C)OCCCC[C@@H](C)O2
    -15, nt, -8, 0.24
57	COc1cc([C@H]2OC[C@H]3[C@@H]2CO[C@@H]3c2ccc(OC)c(OC)c2)ccc1O
    -14, 0.3, -9, -0.33
58	COc1ccc(-c2csc(NCc3ccccc3)n2)cc1
    13, 2.1, -58, 0.023
59	C[C@H](CO)N1C[C@H](C)[C@H](CN(C)Cc2ccc(Cl)c(Cl)c2)Oc2ccc(NS(=O)(=O)c3ccccc3)cc2CC1=O
    20, -1.0, 17, 0.04
60	C=C[C@](C)(O)CC[C@H]1C(C)=CC(=O)[C@H]2C(C)(C)CCC[C@]12C
    nt, nt, -18, -0.033
61	CN1C2=C(C(=O)CC(C)(C)C2)C(c2ccccc2OCC(=O)Nc2ccc(F)cc2)C2=C1CC(C)(C)CC2=O
    -27, 0.2, nt, nt
62	COc1ccc(NC(=O)CSc2nnc(C)s2)c([N+](=O)[O-])c1
    -18, 1.0, nt, nt
63	C[C@@H]1CN([C@H](C)CO)C(=O)c2cc(NC(=O)Cc3cn(C)c4ccccc34)ccc2O[C@@H]1CN(C)C(=O)Nc1cccc2ccccc12
    -14, -5.1, 21, -0.1
64	COc1ccc(NC(=O)Nc2ccc3c(c2)C(=O)N([C@H](C)CO)C[C@H](C)[C@H](CN(C)S(=O)(=O)c2ccc(C)cc2)OCCCC[C@@H](C)O3)cc1
    3, -3.7, 19, 0.061
65	C[C@@H]1CN([C@H](C)CO)C(=O)c2cc(NC(=O)C3CC3)ccc2O[C@H]1CN(C)Cc1ccc(Oc2ccccc2)cc1
    -3, -0.2, -20, -0.021
66	Cc1cc(C)nc(/N=C2\NC(=O)CC(C(=O)O)N2c2cccc(C(F)(F)F)c2)n1 (stereo not given)
    -11, 3.4, nt, nt
67	COc1ccc(NC(=O)Nc2ccc3c(c2)CC(=O)N([C@H](C)CO)C[C@@H](C)[C@H](CN(C)Cc2ccc(-c4ccccc4)cc2)O3)cc1
    8, -0.5, 35, 0.2
68	Cc1noc(C)c1NC(=O)Nc1cccc2c1O[C@@H](CN(C)Cc1ccc(C(F)(F)F)cc1)[C@@H](C)CN([C@H](C)CO)C2=O
    5, -0.2, -9, -0.41
69	CC(C)NC(=O)Nc1cccc2c1O[C@H](CN(C)S(=O)(=O)c1ccc(Cl)cc1)[C@@H](C)CN([C@@H](C)CO)C2=O
    -12, 1.0, -6, -0.34
70	COc1ccc(S(=O)(=O)Nc2ccc3c(c2)C(=O)N([C@@H](C)CO)C[C@@H](C)[C@@H](CN(C)C(=O)Nc2c(C)noc2C)O3)cc1
    -4, 1.0, -7, 0.28

Screening data (PubChem)

The list is partial; rates above refer to the full screens.
